Screening results deposited in PubChem BioAssay by ICCB-Longwood Screening Facility, Harvard Medical School.
S aureus helic = inhibitors of S. aureus replicative helicase, primary screen, biochemical, fluorescence unwinding readout. replicative DNA helicase (DnaC/DnaB), Staphylococcus aureus. purified S. aureus helicase, fluorescence unwinding assay; about half of the hits fall short of the stated cut. inhibition, %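 (tested at about 80 µM)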. 0.05% of 120,000 active;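 active = both duplicates at 50% or more, or one of them with a favoured structure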;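 note: 0% = mean of negative control wells and 100% = mean of positive control wells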
MgrA DNA FP = S. aureus MgrA activity modulators, primary screen, biochemical, S. aureus Newman, fluorescence polarization; MgrA-DNA binding; inhibition, %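 (about 10 µg/mL by stock and volumes)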; 0.13% of 84,000 active; AID 602314, 2012;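 active = above 50% in either of two replicates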;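 note: 0% = protein plus DNA without compound and 100% = DNA alone without protein; higher means less MgrA bound to DNA so lower polarization; one replicate is shown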
* = called active by the depositor; i = inactive; / = not tested or not shown; & = joins results of further samples. The list is partial. The share of hits here may be higher or lower than overall.

SMILES	S aureus helic	MgrA DNA FP
COc1ccc2[nH]c(C)c(CCNS(=O)(=O)c3c(C)[nH]c(=O)[nH]c3=O)c2c1	14	-1.1
CCOCc1c(C(=O)N(CC)Cc2ccc3c(c2)OCCO3)oc2ccccc12	-2	/
O=C(CCCOc1ccccc1)Nc1nncs1	10	-2.6
Ic1ccc2c(-c3ccccc3)onc2c1	4	2.6
CN(C)CCOC(c1ccc(Cl)cc1)c1ccccn1 (configuration not stated)	/	11&-0.1
CCCCn1ccnc1C(=O)c1ccc(S(=O)(=O)N2CCCC2)cc1	6	/
CN1C(=O)NC2NC(=O)N(C)C21 (configuration not stated)	21	/
Cc1ccc2c(c1)-c1c(cnn1CC(=O)N(CCN(C)C)Cc1ccco1)CO2	16	/
Cc1ccc(Cl)cc1NC(=O)C1=NCCN1	12	/
CCN(CC)S(=O)(=O)c1ccc(/C=C/C(=O)Nc2ccc(F)cc2F)cc1	-12	-1.1
c1ccc(C(CCNCc2cccs2)c2ccco2)cc1 (configuration not stated)	-1	-0.7
OC1CCOc2ccccc21 (configuration not stated)	-17	/
COC(=O)Nc1scc2c1c(=O)oc1ccccc12	12	17
Cc1ccc(-n2nc3c(c2NC(=O)c2ccccc2)CSC3)cc1	-15	/
O=C(/C=C/c1ccc(F)cc1)NC1=NCCS1	-7	/
CCC(Oc1ccccc1)c1nc2ccccc2n1CC (configuration not stated)	10	0.3
CC1(C)CC(=O)C(C(c2ccccn2)c2c[nH]c3ccccc23)=C(O)C1 (configuration not stated)	25	/
C=CCN1C(=O)/C(=N\N=C\c2ccc(C)s2)c2ccccc21	14	/
Cn1cc(C(=O)Nc2cccnc2)c2ccccc2c1=O	13	-1.2
COC(=O)c1sccc1NC(=O)C1CCCS1 (configuration not stated)	/	-1.9
O=C(O)CCS(=O)(=O)c1ccc(Br)cc1	13	-0.5
O=C(Nc1cccnc1)c1ccc(Br)o1	6	3.0
CNC(=O)CC1C(=O)N(C)C(=S)N1NC(=O)c1ccc(Cl)cc1 (configuration not stated)	7	-0.6
CSC(=CC(=O)c1cccc2ccccc12)SC	/	-1.8
CC1CCCN(c2ccc(C(F)(F)F)cn2)C1 (configuration not stated)	-12	/
O=C(NCc1ccc2c(c1)OCO2)C(Cc1ccccc1)n1cccc1 (configuration not stated)	5	/
Cc1ccccc1NC1SC(=O)N(Cc2ccccc2)C1=O (configuration not stated)	-12	-0.9
Cc1ccc(-c2nc(-c3cccc(C)c3)no2)cc1	3	/
Cc1ccc(C(=O)/C=C/Sc2nccc(C)n2)cc1	25	/
CC1CN(C(=O)CC(c2ccccc2)c2ccccc2)CC(C)O1 (configuration not stated)	4	-0.4
COc1ccc(OC)c2sc(NC(=O)c3ccc4ncsc4c3)nc12	-2	/
Cc1ccccc1CN	3	/
Cc1cc(C)c(NC(=O)CSCc2cnc(C)c(O)c2CO)c(C)c1	/	0.0
COc1ccc(-c2oc3ncn(Cc4ccccc4)c(=N)c3c2-c2ccc(OC)cc2)cc1	4	-2.6
CC(=O)Nc1c(I)cc(I)c(C(=O)O)c1I	/	2.8
O=C(N/N=C1\CCc2ccccc21)c1cc(-c2ccco2)nc2ccccc12	-9	/
CCN(CC(=O)N1CCc2ccccc2C1)S(=O)(=O)c1ccc(OC)cc1	20	4.3
COc1ccc(C2C3=C(CCCC3=O)Nc3nc4ccccc4n32)cc1 (configuration not stated)	2	2.2
O=C(Cc1ccccc1)NCc1cccs1	13	/
Fc1ccc(-c2onc3ccc(-c4ccn[nH]4)cc23)cc1	/	0.4
COCCn1c(C)cc(/C=N/n2c(C)nc3ccccc3c2=O)c1C	-4	/
CCCNC(=O)c1ccc(NC(=O)N2CCSc3nc(C)cc(C)c32)cc1	-13	/
NC(=O)CSc1n[nH]c(CN2c3ccccc3Sc3ccccc32)n1	/	-1.0
O=C(COC(=O)CCc1c[nH]c2ccccc12)Nc1cccc2nsnc12	-2	/
COC(=O)c1ccc(C(=O)OC)c(S(=O)(=O)N(C)Cc2ccco2)c1	-10	/
COc1cc(C(=O)n2nc(N)c3cc4ccc(C)cc4nc32)cc(OC)c1OC	5	/
CCOC(=O)N1CCC(NS(=O)(=O)c2ccc3[nH]c(=O)ccc3c2)CC1	-17	/
CCO/C=C1\SC(=S)NC1=O	/	5.4
Cc1cc(=O)n(-c2cc(Cl)c(S(=O)(=O)O)cc2Cl)[nH]1	/	2.3
Cc1ccc(Cn2cccc2C2=NC(Cc3ccccc3)CO2)cc1 (configuration not stated)	14	-2.7

Next part
SMILES	S aureus helic	MgrA DNA FP
COc1ccc(/C(C#N)=C/c2ccco2)cc1	/	0.5
N#CC(C(=O)C12CC3CC(CC(C3)C1)C2)c1nc2ccccc2[nH]1 (configuration not stated)	-7	/
CNC(=O)c1cc(Cl)ccc1OC	8	-2.4
c1ccc(-c2nn(-c3ccccc3)[n+](-c3ccccc3)n2)cc1	-1	/
CNC(=O)NC(=O)CSc1nnc(Nc2ccccc2C)s1	-11	/
O=C(NC1CC1)c1ccc2c(c1)N(Cc1ccc(F)cc1)CCS2	11	/
Cc1cc(C)n2nc(C(=O)N3CCOCC3)nc2n1	5	/
CCCCC[C@H](O)/C=C/[C@@H]1[C@@H](C/C=C\CCCC(=O)O)[C@H]2CO[C@@H]1C2	/	-0.6
O=C(CSc1ccccc1)NC1CC1	-21	1.9
CC1CCN(S(C)(=O)=O)CC1	-8	/
CN(Cc1ccccc1)C(=O)C1CCN(c2nc3cccnc3s2)CC1	5	/
COc1ccc(C2(C(=O)NCc3ccco3)CCCC2)cc1OC	7	0.1
COCCSc1ccccc1C(=O)N1CCOCC1	2	1.5
COc1cc(/C=N/NC(=O)c2cc(C)n(-c3ccc(F)cc3)c2C)ccc1OC(=O)c1ccco1	-11	/
CCOC(=O)c1sc(=S)n(-c2ccccc2)c1N	/	4.4
Cc1ccc(O)c(-c2cc(C(F)(F)C(F)(F)F)nc(-c3ccccc3)n2)c1	1	1.1
CS(=O)(=O)c1cccc(S(=O)(=O)NCc2cccnc2)c1	-12	3.1
COc1ccc(C2=NN(C(=O)COc3ccccc3C(N)=O)C(c3ccco3)C2)cc1 (configuration not stated)	-14	/
CC(C)Nc1ncnc2onc(-c3ccc(F)cc3)c12	-3	/
CCN(CC)S(=O)(=O)c1ccc(NC2CCN(Cc3ccccc3)CC2)nc1	2	/
O=C1C(=O)N(CCCn2ccnc2)C(c2ccc(Cl)cc2)/C1=C(\O)c1ccc(F)cc1 (configuration not stated)	-15	-2.0
Nc1ccc(Sc2ccccc2)nc1	/	-3.2
Cc1onc(-c2ccccc2)c1C(=O)Nc1nnc(N2CCCCCC2)s1	-9	/
Cc1[nH]nc2c1C1=C(C(=O)CC(C)(C)C1)C(c1ccc(N(C)C)cc1)N2 (configuration not stated)	/	-1.9
CC1C/C(=C/c2cccn2C)C(=O)/C(=C/c2cccn2C)C1 (configuration not stated)	i	-5.5
OC(CN1CCC(NC2CCCCC2O)CC1)Cn1ccc2ccccc21 (configuration not stated)	/	-0.5
COc1ccc(CC(=O)NCCSc2c(-c3ccccc3)[nH]c3ccccc23)cc1OC	16	0.7
O=C(CSc1nc2ccccc2[nH]1)n1c2ccccc2c2ccccc21	-15	-1.2
N#Cc1c(NC(=O)NCc2ccco2)sc2c1CCC2	7	7.2
CC(CNC(=O)c1csc2c1CCCC2)c1ccccc1 (configuration not stated)	15	-0.7
C=CCn1c(SCC(=O)N2CCN(CCO)CC2)nc2sc(C)c(C)c2c1=O	/	-1.6
CC(CN1CCOCC1)OC(=O)C(C)(c1ccccc1)c1ccccc1 (configuration not stated)	-5	-4.8
N#Cc1c(NC(=O)CSc2ncccn2)sc2c1CCCC2	2	-0.7
CN1/C(=C\C(=O)CN2CCc3ccccc3C2)C(C)(C)c2ccccc21	8	/
NC(=O)/C(=C\c1ccco1)NC(=O)c1ccco1	-1	2.5
O=C(N/N=C/c1cccnc1)c1nc2ccccc2c(=O)[nH]1	3	/
COc1ccc(NC(=O)C(Cc2ccccc2)NC(=O)c2ccco2)cc1OC (configuration not stated)	9	-0.4
CCOC(=O)C1=NOC2C(=O)N(c3ccc(Cl)cc3)C(=O)C12 (configuration not stated)	10	/
O=c1[nH]cc(COCC(F)(F)C(F)F)c(=O)[nH]1	17	-0.2
CN(C)S(=O)(=O)c1cccc(-c2nnc3n2CCCCC3)c1	-10	/
Cc1cccc(-n2ncc3c2ncn2nc(COc4c(C)cccc4C)nc32)c1	17	0.5
N/C(=N\O)c1cccs1	18	/
CSC(=NC=[N+](C)C)Nc1ccccc1	/	-2.2
CC(C)NC(=O)c1cccn2c(=O)c3c4c(sc3nc12)CCCC4	15	2.5
Cc1nc2ccc(CO)cc2s1	3	3.0
COc1ccc(-c2nc3ccccc3s2)cc1	/	-0.1
COc1ccc(-c2nc(SCC(=O)N3CCCc4ccccc43)c3c(=O)n(C)c(=O)n(C)c3n2)cc1	-13	/
OCCN1CCN(c2nccc(C(F)(F)F)n2)CC1	/	-1.5
Cc1cc(C(=O)NCC2COc3ccccc3O2)nn1C (configuration not stated)	/	-1.0
CCOC(=O)/C(C)=N/Nc1ccc(C)cc1	/	5.3

Additional entries:
SMILES	S aureus helic	MgrA DNA FP
CCc1ccc(C(=O)Nc2nncs2)cc1	-7	2.0
Cc1cc(C)n2ncc(C(=O)N3CCC(C)CC3)c2n1	7	/
O=C(CSc1ccc(C(F)(F)F)cc1[N+](=O)[O-])Nc1cc(C(F)(F)F)cc(C(F)(F)F)c1	/	-2.6
O=C(OCC(=O)N1CCCCCC1)c1ccc(Cl)nc1	-6	2.3
COc1ccccc1NC(=O)/C=C1\NC(=O)CS1	6	/
Cc1n[nH]c(C)c1-c1c(C)n[nH]c1C	8	/
O=c1c(F)cn(C2CCCO2)c(=O)n1Cc1cccc2ccccc12 (configuration not stated)	/	0.9
Cc1cccc2nc(CSc3nnc(-c4ccccc4)o3)cn12	8	/
Cc1n[nH]c(=S)n1CC(=O)N1c2ccccc2CCc2ccccc21	6	-3.8
COc1ccc(-c2cc(C(F)(F)F)nc(SCCC(=O)N3CCC(C(N)=O)CC3)n2)cc1	-23	/

Part of the list above, as labelled records.
COc1ccccc1NC(=O)/C=C1\NC(=O)CS1
  S aureus helic: 6; MgrA DNA FP: /

Ic1ccc2c(-c3ccccc3)onc2c1
  S aureus helic: 4; MgrA DNA FP: 2.6

OC1CCOc2ccccc21 (configuration not stated)
  S aureus helic: -17; MgrA DNA FP: /

O=C(/C=C/c1ccc(F)cc1)NC1=NCCS1
  S aureus helic: -7; MgrA DNA FP: /

Quoted at random: 5 records from the list.
SMILES	S aureus helic	MgrA DNA FP
Cc1n[nH]c(C)c1-c1c(C)n[nH]c1C	8	/
CCc1ccc(C(=O)Nc2nncs2)cc1	-7	2.0
O=c1c(F)cn(C2CCCO2)c(=O)n1Cc1cccc2ccccc12 (configuration not stated)	/	0.9
Cc1n[nH]c(=S)n1CC(=O)N1c2ccccc2CCc2ccccc21	6	-3.8
COc1ccc(-c2cc(C(F)(F)F)nc(SCCC(=O)N3CCC(C(N)=O)CC3)n2)cc1	-23	/

Further structures
SMILES	S aureus helic	MgrA DNA FP
CC(=O)OCN1C(=O)N(COC(C)=O)C2C1N(COC(C)=O)C(=O)N2COC(C)=O (configuration not stated)	31	/
Cc1cc(Br)ccc1SCC(=O)OCC(=O)NC1CCCC1	8	0.4
COc1ccc(-c2[nH]c3ccccc3c2CCC(=O)O)cc1	7	/
CCOc1ccccc1C(=S)N1CCOCC1	11	16
CSC1=NCCN1S(=O)(=O)c1ccc(Br)cc1	10	/
Cc1ccc(-c2nc(C#N)c(NCCN(C)C)o2)cc1	-3	1.4
COc1ccc(OC)c(Nc2nc3ccccc3n3cnnc23)c1	10	/
CN(N)C(=S)Nc1ccccc1	-17	/
CCOC(=O)c1c(NC(=O)CSc2nnnn2-c2cc(C)ccc2OC)sc(C(=O)N(CC)CC)c1C	0	/
CC1(C)CC(=O)C(C=Nc2ncnc3nc[nH]c23)=C(O)C1	1	-6.1
COC(=O)c1ccc(NCC(=O)N2CCCCCC2)cc1	-17	-0.5
CCc1cc(=O)[nH]c(N2CCCCC2)n1	31	/
CC(OC(=O)C1=NNC(=O)CC1)C(=O)Nc1ccc(Oc2ccccc2)cc1 (configuration not stated)	5	/
O=C(Cc1c[nH]c2ccccc12)OCC(=O)N1CCCC1=O	-2	/
O=C(CSc1cccc[n+]1[O-])c1ccc(OC(F)F)cc1	11	/
CCCN(C(=O)/C=C/c1ccc(N(C)C)cc1)C1CCS(=O)(=O)C1 (configuration not stated)	-11	/
CCCOc1ccc(/C=C/C(=O)Nc2ncn[nH]2)cc1OC	-4	0.1
CC/C(=N\NS(=O)(=O)c1ccc(C)cc1)c1ccco1	/	-1.4
O=C(CSc1nnc2ccccn12)c1ccc(S(=O)(=O)N2CCCCC2)cc1	-8	/
CCc1cccc2c(C(=O)COC(=O)C3=NNC(=O)CC3)c[nH]c12	-13	/
CCOC(=O)C1CCN(C(=O)COC(=O)c2ccc(O)cc2)CC1	10	/
CC(=O)N(c1ccccc1)C1SC(=O)N(c2ccccc2)C1=O (configuration not stated)	-13	/
Cc1ccc(C2=N/C(=C\c3ccco3)C(=O)O2)cc1	12	-0.8
CC1CN(C/C(=N/O)C23CC4CC(CC(C4)C2)C3)CC(C)O1 (configuration not stated)	1	0.3
OC1CCN(Cc2nnnn2Cc2ccccc2)CC1	1	15
COc1cccc2c1OC1=C(C(=O)CC(C)(C)C1)C2CC(=O)c1ccc(O)cc1 (configuration not stated)	11	-0.8
O=C(OCCS(=O)(=O)c1ccc(Cl)cn1)c1cccc(Cl)c1	/	1.3
